# Compound activity as filed in PubChem.
# VACV Venus inh = vaccinia inhibition (Venus reporter). hit rate 0.46% among 330,000. Potency, µM (highest dose often 36.5 µM), inactives show at the highest dose activity change, negative = inhibition, hits mostly inhibitors. Vaccinia virus Venus reporter expression, fluorescence; active means well fitted inhibition curve with a large enough effect; inconclusive means small, poorly fitted or top-dose-only effect; inactive means no such curve, though single readings can be large or run the other way; tested in A549 cells; also: nearly all actives have a fitted effect of over 30% in size; inactives centre near -10
# VACV mCherry inh = vaccinia inhibition (mCherry reporter); Potency, µM (highest dose often 36.5 µM), without a hit: top-dose activity change, negative = inhibition, usual class: inhibitors; Vaccinia virus mCherry reporter infection, fluorescence; about a quarter of the inactives have no number; AID 720579; hit rate 0.63% among 310,000; active = well fitted inhibition curve with a large enough effect; inconclusive = small, poorly fitted or top-dose-only effect; inactive = no such curve, though single readings can be large or run the other way; tested in A549 cells; also: nearly all actives have a fitted effect of over 35% in size; inactives centre near -10
# * marks the source's active call; other numbers are inactive results; i = inactive; ? = inconclusive; . = not tested or not shown; & = joins results of further samples; [ ] = remark or other dose. % is scaled to controls: 0 for no effect and ±100 for the full control effect; potency is read from the fitted curve at half-maximal effect. Compounds were not picked by outcome. About 0.86% of those tested had a hit in this group.
SMILES,VACV Venus inh,VACV mCherry inh
O=C(COC(=O)c1cccc(S(=O)(=O)N2CCc3ccccc32)c1)NCc1ccco1,-17%,-20%
CNc1c([N+](=O)[O-])ncn1C,-17%,.
Cc1ccc(S(=O)(=O)NCC(=O)OCC(=O)c2c(N)n(C)c(=O)n(C)c2=O)cc1,-8%,-7%
CCOc1cccc2cc(C(=O)N3CCOCC3)c(=O)oc12,-17%,-17%
Fc1ccccc1CSc1nnc(-c2cccs2)o1,-20%,i
C(=N\Nc1nc(-c2ccccc2)cs1)/c1ccco1,-11%,-25%
COc1cc(CCC(=O)OCC(=O)Nc2c(Cl)cccc2Cl)cc(OC)c1OC,-6%,2%
C=CCOc1ccc(/C(O)=C2/C(=O)C(=O)N(CCCN3CCOCC3)C2c2ccc(OC)cc2)cc1 (stereo not drawn),-2%,-1%
Cc1ccc(CSc2cn(CC(=O)N3CCCCC3)c3ccccc23)cc1,-16%,-17%
Cc1sc(NC(=O)C2=COCCO2)c(C(N)=O)c1C,-26%,-12%
O=C(NCC(c1cccs1)N1CCOCC1)c1cc(S(=O)(=O)N2CCOCC2)ccc1F (stereo not drawn),-7%,-11%
O=C(NCc1ccco1)c1cc([N+](=O)[O-])ccc1Cl,-10%,-7%
OCC[C@@H]1C[C@H](O)[C@@H](O)[C@]2(OCc3ccc4ccccc4c32)O1,-7%,i
CCOc1ccccc1N1CCN(CC(=O)Nc2nnc(CC)s2)CC1,-13%,0%
CCOC(=O)c1[nH]c2ccc(F)cc2c1N=C(C)N(CC)CC,10%,.
CCCc1cc(=O)[nH]c2nnc(SCC(=O)N3CC(C)OC(C)C3)n12 (stereo not drawn),3%,-3%
COc1cc(O)c(C(CCN2CCCCC2)c2ccc(N(C)C)cc2)c(OC)c1 (stereo not drawn),-22%,?
N/C(Cn1cncn1)=N\OC(=O)c1ccc(Cl)cc1,-1%,-10%
O=C(CSc1nc2ccc(Cl)cc2[nH]1)c1c[nH]c2ccccc12,-4%,i
CN(C)C(=S)Nc1nc2ccccc2s1,-24%,-17%
O=C(COc1ccc(Br)cc1Cl)NC1CCCCC1,-25%,-14%
O=C(NCc1ccc2c(c1)OCO2)C1CCCN(S(=O)(=O)c2cccc3nonc23)C1 (stereo not drawn),-18%,-3%
CCC1(CC)NC(=O)N(CC(=O)NC(=O)NCc2ccccc2)C1=O,-3%,i
O=C(CSc1nnc(CNc2ccccc2)o1)N1CCN(C(=O)c2ccco2)CC1,-6%,-17%
Cn1c(N)c(-c2ccccc2)c2ccc([N+](=O)[O-])cc2c1=O,109%[activator],-25%
O=C(Nc1ccc2[nH]c(=O)c(=O)[nH]c2c1)c1cccc(F)c1,1%,-12%
CCN(c1ccccc1)S(=O)(=O)c1csc(C(N)=O)c1,-11%,i
COc1ccc(NS(=O)(=O)c2cccc(C(=O)N3CCN(Cc4ccc5c(c4)OCO5)CC3)c2)cc1,-21%,-9%
O=C(Nc1cnc2sc3c(n2c1=O)CCCC3)c1ccc(F)cc1,-11%,.
CCC(C(=O)NC1CCCC1)n1c(SCc2cccc(C)c2)nc2ccncc21 (stereo not drawn),-10%,-12%
CCN(C(=O)/C=C/c1ccc2c(c1)OCO2)c1ccccc1,-21%,i
Cc1cc(C)n(-c2nnc(C)n2/N=C/c2cc(Br)ccc2OCc2ccccc2)n1,-27%,.
Cc1ccc(Cl)cc1NC(=O)c1cc(S(=O)(=O)N2CCOCC2)cn1C,-17%&-6%,0%&-1%
COC(=O)C1=C(C)NC(=O)CC1c1cc(Br)ccc1F (stereo not drawn),-5%,1%
O=C(CCn1c(=O)oc2ccccc21)Nc1cccc(Br)c1,-14%,-14%
COc1ccc(CN(C)Cc2nc(Cc3cccc(F)c3)no2)c2cccnc12,?,?
COc1ccc(S(=O)(=O)N(Cc2nc3ccccc3c(=O)[nH]2)C2CCCC2)cc1,-10%,-2%
CC(C)Sc1oc(-c2ccco2)nc1S(=O)(=O)c1ccccc1,-13%,i
CCCCN1C(=O)C(NC(C)=O)c2ccccc21 (stereo not drawn),-11%,-10%
Cc1ccc(S(=O)(=O)c2nc(NC3CCS(=O)(=O)C3)sc2Cl)cc1 (stereo not drawn),-29%,.
CCOP(=O)(O)c1ccccc1OCCOc1ccccc1P(=O)(O)OCC,-9%,i
O=C(/C=C/c1ccco1)N(Cc1cccc(Br)c1)C1CCS(=O)(=O)C1 (stereo not drawn),1%,-13%
N#CCCN(C(=O)COC(=O)CNC(=O)c1cccs1)c1ccc(F)cc1,-3%,-7%
O=C(Nc1nnc(C2CC2)s1)c1ccc(Cl)c(S(=O)(=O)N2CCc3ccccc3C2)c1,-11%,-19%
CCOC(=O)C1CCCN(C(=O)c2cccc(Cl)c2)CC1 (stereo not drawn),0%,11%

# Part of the list above in a different format:
SMILES	VACV Venus inh	VACV mCherry inh
COC(=O)C1=C(C)NC(=O)CC1c1cc(Br)ccc1F (stereo not drawn)	-5%	1%
O=C(CCn1c(=O)oc2ccccc21)Nc1cccc(Br)c1	-14%	-14%
COc1ccc(CN(C)Cc2nc(Cc3cccc(F)c3)no2)c2cccnc12	?	?
COc1ccc(S(=O)(=O)N(Cc2nc3ccccc3c(=O)[nH]2)C2CCCC2)cc1	-10%	-2%
CC(C)Sc1oc(-c2ccco2)nc1S(=O)(=O)c1ccccc1	-13%	i
CCCCN1C(=O)C(NC(C)=O)c2ccccc21 (stereo not drawn)	-11%	-10%
Cc1ccc(S(=O)(=O)c2nc(NC3CCS(=O)(=O)C3)sc2Cl)cc1 (stereo not drawn)	-29%	.

# Following part:
SMILES,VACV Venus inh,VACV mCherry inh
COC(=O)CN1C(=O)C(C)(C)Oc2ccc(C(=O)NC3CCCC3)cc21,-13%,-13%
COc1ccc(CNC(=O)N2CCc3nc(Nc4cc(OC)c(OC)c(OC)c4)ncc3C2)cc1,-26%,12%
Cc1ccc(-n2c(O)c(/C=N/Nc3ccc(S(=O)(=O)N4CCOCC4)cc3[N+](=O)[O-])c3ccccc3c2=O)c(C)c1,-30%,i
COc1ncnc(OC)c1S(=O)(=O)NCc1ccccc1,-12%,i
O=C(CCS(=O)(=O)c1ccc(Cl)cc1)N1CCCc2ccccc21,-15%,-12%
O=C(O)CC(c1ccc(OC2CCCC2)cc1)N1C(=O)c2ccccc2C1=O (stereo not drawn),-9%,-13%
CCCOc1ccccc1-c1nc2c([nH]1)c(=O)[nH]c(=O)n2C,-10%,.
COc1ccc(C)cc1-n1nnnc1SCC(=O)Nc1cccnc1Cl,-9%,-1%
COc1ccc(C(=O)NC(=S)NCc2cccnc2)cc1Cl,1%,33%[activator]
O=C(CN1C(=O)/C(=C2/SC(=S)N(CCS(=O)(=O)O)C2=O)c2ccccc21)Nc1cccc(C(F)(F)F)c1,12%,-20%
COc1cccc(OC)c1C(=O)Nc1c(C)n(C)n(-c2ccccc2)c1=O,-12%,-11%
O=C(c1ccccn1)N1CCCC(N2CCN(Cc3ccc4c(c3)OCO4)CC2)C1 (stereo not drawn),-5%,-19%
Brc1ccc(CN2CCN(Cc3c[nH]c4ccccc34)CC2)cc1,-24%,?
O=C(CN1CCN(c2ccccc2F)CC1)c1ccc2c(c1)OCO2,-11%,.
CCCc1cc(=O)oc2cc(OC(C)C(=O)NCC3CCC(C(=O)O)CC3)ccc12 (stereo not drawn),0%,1%
Cc1ccc(OCC(=O)NC2CC(C)(C)NC(C)(C)C2)cc1C,-4%,i
Cc1ccc(OCCn2cnc3c2c(=O)n(C)c(=O)n3C)cc1,-15%,i
Cc1ccc(OCC(=O)N(Cc2nc(-c3ccccc3)no2)C(C)C)cc1C,-15%,-9%
CC(C)CCn1c(SCCN2CCOCC2)nc2c1c(=O)[nH]c(=O)n2C,-23%,?
COC(=O)[C@@]12C[C@@H](CC(=O)N3CCSCC3)C(=O)N(CCc3ccc(OC)c(OC)c3)C1=CCC(C)(C)C2,-1%,-10%
O=C(c1ccc(F)cc1)C(Cc1ccccc1)N1CCCCC1 (stereo not drawn),-6%,i
CCn1nc(C(=O)N2CCc3ccccc32)c2ccccc2c1=O,-15%,i
CCCC1=C(C(=O)OCC)C(c2ccccc2OC)NC(=O)N1 (stereo not drawn),-10%,.
CCOc1ccc(NC(=O)CSc2nnc(-c3ccc(C)cc3)c(-c3ccc(C)cc3)n2)cc1,-17%,-17%
O=C(CN1CCN(c2ccc(Cl)cc2)CC1)Nc1ccc(F)c(F)c1,-26%&-11%,-9%
Cc1ccc(NS(=O)(=O)c2ccc3c(c2)NC(=O)C(C)C(=O)N3)cc1C (stereo not drawn),-3%,25%
CCNC(=O)CSc1nc2ccccc2c(=O)n1-c1cccc(OC)c1,-15%,-11%
CC(O)c1nc(C(C)O)n(CC(=O)c2ccccc2)n1 (stereo not drawn),-5%,i
OC(CN1C2=NCCCN2c2ccccc21)c1ccc2c(c1)OCO2 (stereo not drawn),0%,.
CCOc1ccc(NC(=O)c2c(N)n(C)c(=O)[nH]c2=O)cc1,-17%,-14%
Cc1ccc(NC(=O)CN(C)C(=O)c2ccccc2Cc2ccccc2)cc1,-2%,i
CC1CN(Cc2cccn2-c2cccnc2)Cc2cc(Cl)ccc2O1 (stereo not drawn),2%,-10%
COc1cccc(CNC(=O)CCc2cn(Cc3ccccc3Cl)c3ccccc23)c1,-9%,-13%
O=C(Nc1ccc(F)cc1F)c1cc2c(=O)n3ccccc3nc2s1,-16%,i
C[C@@H](c1ccccc1)N1C[C@H](COCc2ccccc2)Oc2cc(N3CCC[C@H]3C(N)=O)ccc2S1(=O)=O,-6%,-3%
CCOc1ccc(-n2nc3c(=S)[nH]nc(C)c3c2C)cc1,-22%,-6%
CCOCCCNC(=O)C(NC(=O)Cc1cccs1)c1ccc(C)cc1 (stereo not drawn),-2%,-10%
O=S(=O)(c1ccc2ccccc2c1)N1CCOCC1,-12%&1%,2%&-11%
Cc1ccccc1C(=O)Nc1cc2c(cc1N1CCOCC1)n(C)c(=O)n2C,-6%,-10%
Cc1cc(C)nc(SCc2nc3ncccn3c2Br)n1,0%,.
COc1ccc(C)cc1S(=O)(=O)N(C)CC(=O)NC1CC1,-12%,-1%
CC1(C)Cc2ccccc2C(N/N=C/c2ccc(Cl)cc2)=N1,-15%,-36%
CN(c1ccc(OCC(=O)NC2CCC(O)CC2)cc1)S(=O)(=O)c1ccc(Cl)cc1 (stereo not drawn),-2%,0%
CCCNC(=O)C1CCN(c2nc3ccc(C)cc3[nH]2)CC1,-4%,-7%
CN(C)Cc1ccc(CNC(=O)c2ccc(Cl)c(S(=O)(=O)NC3CC3)c2)cc1,-4%,-20%

# Two entries from above, tab-delimited.
mol	VACV Venus inh	VACV mCherry inh
CCOCCCNC(=O)C(NC(=O)Cc1cccs1)c1ccc(C)cc1 (stereo not drawn)	-2%	-10%
O=S(=O)(c1ccc2ccccc2c1)N1CCOCC1	-12%&1%	2%&-11%

# (next part)
SMILES,VACV Venus inh,VACV mCherry inh
O=C(Cn1ccc(NC(=O)OCc2ccccc2)nc1=O)NCCc1c[nH]c2ccccc12,-9%,i
CCCCNC(=S)Nc1ccc(Cl)cc1,-9%,-11%
Cc1ccc(Cl)c(NC(=O)CN2CCNC(=O)C2)c1Cl,0%,8%
CC(C)CNC(=O)CCSc1nc(-c2ccc3c(c2)OCO3)cc(C(F)(F)F)n1,-3%,-4%
O=C(NNC(=O)[C@@H]1CCCC[C@@H]1C(=O)O)Nc1ccccc1,0%,-14%
C(COC1CC2CC1C1C2CC2OC21)OC1CC2CC1C1C2CC2OC21 (stereo not drawn),-14%,-23%
COc1ccc(NC(=O)c2nnn(CC(=O)Nc3ccc4c(c3)OCO4)c2N)c(OC)c1,-23%,-8%
Cc1ccc(NCCCn2ccc(NC(=O)OCc3ccccc3)nc2=O)cc1C,-15%,?
CN(C(=O)CSc1nnc(-c2ccc(F)cc2)c2ccccc12)C1CCS(=O)(=O)C1 (stereo not drawn),?,-22%
CSc1nc(Sc2cccc(Cl)c2)c2ccccc2n1,-6%,.
Cc1nc2c(-c3ccccc3)c(C)nn2c(C)c1CCC(=O)NCc1ccc(Cl)cc1,0%,-3%
Cc1c(C(=O)Oc2cccc3cccnc23)oc2ccccc12,-8%,-5%
COc1ccc(Cl)cc1Nc1ccc2cc(S(=O)(=O)N3CCCCC3)ccc2n1,-11%,-26%
Cc1cc(NC(=O)CCCn2cc([N+](=O)[O-])cn2)n(Cc2ccc(F)cc2)n1,-4%,2%
O=C(Nc1ccccc1[N+](=O)[O-])c1cc(S(=O)(=O)N2CCOCC2)cs1,-13%,i
CC(C)COc1ccc(C(=O)N/C(=C\c2cccc([N+](=O)[O-])c2)C(=O)OC(C)C)cc1,-4%,.
COc1ccc(NC(=O)C(=O)NCC(c2cccnc2)N2CCc3ccccc3C2)cc1 (stereo not drawn),-23%,-22%
O=C(COc1ccccc1)NCC(=O)NC1=NCCS1,-4%,.
N#Cc1ccc(C(=O)Nc2cc(S(=O)(=O)N3CCCC3)ccc2OCC(F)(F)F)cc1,-14%,i
COc1ccc(CCNC(=O)c2c(O)c3cccc4c3n(c2=O)CC4)cc1,-13%,.
COc1cc(CCNC(=O)c2ccc3c(c2)c(C)c(C)n3Cc2cccc(C)c2)cc(OC)c1OC,-29%,?
CCOC(=O)c1sc(N(Cc2ccccc2)C(=O)CCl)nc1C,-12%,-21%
CCOC(=O)N1CCN(CC(O)COc2ccc(C)cc2C(C)(C)C)CC1 (stereo not drawn),-22%,i
CC(Sc1cccc[n+]1[O-])c1ccccc1 (stereo not drawn),-15%,-7%
CCNS(=O)(=O)c1ccc2c(c1)NCC2,-7%,-10%
